# MLL AF4-AF9 inh – inhibitors of AF4 peptide binding to AF9, primary screen, biochemical, AlphaScreen, biotin-AF4 peptide, FLAG-AF9, single point. Protein AF-9 (Homo sapiens), P42568. inhibition, % at 10 µM. 0.47% of 350,000 active. AID 651704, 2012;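 active means every replicate reaching a set inhibition limit, whatever the replicate mean, cut at about 25% in these data; inconclusive means mean inhibition reaches that limit but some replicates miss it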;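 further: 0% = plate neutral control median and 100% = total signal loss; the record names both 10 and 1 µM as test concentration; the first replicate is given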
# Target sequence (P42568 whole entry, looked up): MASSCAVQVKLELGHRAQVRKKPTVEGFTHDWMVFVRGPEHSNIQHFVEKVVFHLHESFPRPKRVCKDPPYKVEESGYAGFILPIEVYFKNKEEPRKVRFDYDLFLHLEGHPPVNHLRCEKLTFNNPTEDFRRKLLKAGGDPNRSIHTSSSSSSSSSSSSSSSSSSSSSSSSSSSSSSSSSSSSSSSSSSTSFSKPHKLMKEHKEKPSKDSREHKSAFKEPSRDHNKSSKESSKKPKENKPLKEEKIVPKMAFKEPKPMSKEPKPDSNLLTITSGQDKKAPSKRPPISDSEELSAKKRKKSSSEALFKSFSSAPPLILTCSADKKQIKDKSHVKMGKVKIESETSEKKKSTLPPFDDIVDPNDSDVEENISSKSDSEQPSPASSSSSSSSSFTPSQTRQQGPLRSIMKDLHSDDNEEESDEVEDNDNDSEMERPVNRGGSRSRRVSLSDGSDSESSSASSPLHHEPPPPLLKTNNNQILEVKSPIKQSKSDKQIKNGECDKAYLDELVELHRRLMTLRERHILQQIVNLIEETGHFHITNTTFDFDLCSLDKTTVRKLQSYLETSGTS
# * hit, by the source's call; u = inconclusive; & = joins results of further samples.
No.	Structure	MLL AF4-AF9 inh
1	Cc1ccc(C(=O)N2CCC(N3CCC(C(=O)N4CCOCC4)CC3)CC2)cc1	-3.5
2	C[C@H](CO)N1C[C@H](C)[C@H](CN(C)S(=O)(=O)c2ccc(Cl)cc2)Oc2ccc(NC(=O)NC3CCCCC3)cc2C1=O	-1.0
3	COc1cccc(NC(=O)N[C@H]2CC[C@@H](CC(=O)N3CCCCC3)O[C@H]2CO)c1	-0.5
4	COc1cccc(S(=O)(=O)N(C)C[C@H]2Oc3cc(C4=CCCC4)ccc3S(=O)(=O)N([C@H](C)CO)C[C@@H]2C)c1	0.6
5	Cc1cccc(NC(=O)CSc2nc(=O)n(CCCN3CCOCC3)c3c2CCCC3)c1C	-12
6	CCc1ccc(NC(=O)C(=O)NCCN2CCN(C(=O)c3ccc(OC)cc3)CC2)cc1	-2.0
7	COc1ccc(NC(=O)Nc2cccc3[nH]c([C@@H]4O[C@H](CO)[C@@H](O)[C@H](O)[C@H]4O)nc23)cc1OC1CCCC1	u
8	CC(C)C#Cc1ccc2c(c1)O[C@@H](CN(C)Cc1ccccc1)[C@H](C)CN([C@@H](C)CO)S2(=O)=O	2.6
9	C[C@@H]1CN([C@@H](C)CO)C(=O)c2cc(NS(=O)(=O)c3cn(C)cn3)ccc2O[C@@H](C)CCCCO[C@H]1CN(C)C(=O)CCC(F)(F)F	1.3
10	CCCC#Cc1ccc([C@H]2[C@@H](CO)N3C(=O)CN(C(=O)c4cccnc4)C[C@@H]23)cc1	-1.4
11	CC(C)NC(=O)N(C)C[C@H]1Oc2ncc(C#Cc3ccccc3F)cc2C(=O)N([C@H](C)CO)C[C@@H]1C	-0.1
12	Cc1ccc(S(=O)(=O)Nc2ccc3c(c2)C(=O)N([C@H](C)CO)C[C@H](C)[C@@H](CN(C)CC2CC2)OCCCC[C@@H](C)O3)cc1	-7.9
13	O=C(C[C@H]1C[C@H]2c3cc(NC(=O)CC4CC4)ccc3O[C@H]2[C@H](CO)O1)NCC(F)(F)F	-1.4
14	O=C(c1cnccn1)N1CC(=O)N2[C@H](C1)[C@H](c1ccc(C#CCC3CCCC3)cc1)[C@@H]2CO	15
15	O=C(NCC(F)(F)F)[C@@H]1[C@@H](CO)[C@@H]2Cn3c(cccc3=O)[C@@H]2N1Cc1cccc(F)c1	-1.4
16	Cc1ccc(S(=O)(=O)Nc2ccc3c(c2)C(=O)N([C@H](C)CO)C[C@@H](C)[C@@H](CN(C)CC2CCCCC2)O3)cc1	-2.4
17	COc1ccc(NC(=O)N[C@@H]2CC[C@@H](CCNC(=O)c3cc(Cl)cc(Cl)c3)O[C@H]2CO)cc1	-0.3
18	CCc1nc2c(OCCOc3ccccc3)cccn2c1N(C)C(=O)c1ccccc1F	2.2
19	Cc1ccc(S(=O)(=O)N(C)C[C@@H]2OCCCC[C@@H](C)Oc3ccc(NC(=O)c4ccccc4)cc3C(=O)N([C@@H](C)CO)C[C@@H]2C)cc1	-0.6
20	O=C(C[C@H]1CC[C@@H]2[C@H](COC[C@@H](O)CN2C(=O)Nc2ccc(Cl)c(Cl)c2)O1)NCc1ccc(F)cc1	-0.6
21	CSCCC(C(=O)NC1CCCC1)n1c(-c2ccccn2)nc2ccccc21 (stereo not given)	0.1
22	COc1ccc(C#Cc2ccc([C@H]3[C@@H](CO)N4C(=O)CN(C(=O)c5ccc(F)cc5)C[C@H]34)cc2)cc1	-0.7
23	C[C@@H]1CN([C@@H](C)CO)C(=O)Cc2cc(NC(=O)Nc3ccc4c(c3)OCO4)ccc2O[C@@H]1CN(C)C(=O)Nc1ccc2c(c1)OCO2	2.7
24	CC(Oc1ccc(Br)cc1)C(=O)Nc1ccc(S(=O)(=O)NC2=NCCCCC2)cc1 (stereo not given)	-3.4
25	CC(C)(C)[C@@H]1C=C(C(=O)N2CCCCCCC2)O[C@H](OCCCCO)C1	-0.9
26	COc1ccc2cc(CNCCOCCOCCNCc3ccc4cc(OC)ccc4c3)ccc2c1	7.1
27	C/C=C/c1ccc([C@H]2[C@@H](CO)N(CC3CC3)C23CN(C(=O)COC)C3)cc1	1.6
28	COc1ccc(S(=O)(=O)Nc2cccc3c2O[C@@H](CN(C)Cc2ccccc2)[C@@H](C)CN([C@H](C)CO)C3=O)cc1	-1.4
29	Cc1noc(C)c1NC(=O)Nc1ccc2c(c1)C(=O)N([C@@H](C)CO)C[C@@H](C)[C@H](CN(C)Cc1ccncc1)OCCCC[C@@H](C)O2	-2.0
30	CN1C(=O)c2cc(NC(=O)C3CCCC3)ccc2OC[C@@H]2O[C@@H](CC(=O)Nc3ccccc3)CC[C@@H]21	-0.8
31	O=C(C[C@H]1CC[C@@H]2[C@H](COC[C@@H](O)CN2Cc2ccc(F)cc2)O1)NCc1ccccc1Cl	1.4
32	COc1ccc2c(CN(Cc3ccccc3)Cc3ccccc3)cc(=O)oc2c1	-4.3
33	CO[C@@H](CN(C)C(=O)C1CCOCC1)[C@H](C)CN(C(=O)Nc1ccc(F)cc1)[C@H](C)CO	0.1
34	COc1ccc(NC(=O)N(C)C[C@@H]2Oc3ccc(NC(=O)Nc4ccc(F)cc4)cc3CC(=O)N([C@@H](C)CO)C[C@@H]2C)cc1	-0.1
35	OC[C@@H]1CN(Cc2ccc3c(c2)OCO3)C[C@H](n2cnc3c(NCc4ccco4)ncnc32)O1	1.5
36	CN(C)C(=O)C[C@H]1C[C@H]2c3cc(NC(=O)CC4CC4)ccc3O[C@H]2[C@@H](CO)O1	-1.6
37	C[C@@H]1CN([C@H](C)CO)C(=O)c2cc(NC(=O)Nc3cccc4ccccc34)ccc2O[C@@H](C)CCCCO[C@H]1CN(C)S(=O)(=O)c1cn(C)cn1	6.4
38	O=C(NC1CCCCC1)N1CC2(C1)[C@H](c1ccccc1)[C@@H](CO)N2CC1CC1	-3.1
39	C[C@@H]1CN([C@@H](C)CO)C(=O)Cc2cc(NS(=O)(=O)c3ccccc3)ccc2O[C@@H]1CN(C)S(=O)(=O)c1cn(C)cn1	1.3
40	CC(C)[C@@H]1Cc2[nH]c(=O)[nH]c(=O)c2[C@H](C)O1	2.4
41	CO[C@H]1CN(C)C(=O)c2cc(NS(C)(=O)=O)ccc2OC[C@H](C)NC[C@@H]1C	-4.9
42	CC(C)NC(=O)N1[C@H](CO)[C@@H]2c3ccccc3NC[C@@H]21	-30
43	CC(C)c1ccc(-n2nnnc2SCc2nc(N)nc(N)n2)cc1	-1.5
44	C[C@@H]1CN([C@@H](C)CO)C(=O)c2cc(NC(=O)CCC(F)(F)F)ccc2O[C@@H]1CN(C)S(=O)(=O)c1cn(C)cn1	-7.5
45	CCC(=O)N1CC2(C1)CN(C(=O)Nc1ccccc1F)[C@@H](CO)c1c2c2ccc(OC)cc2n1C	-1.4
46	COc1ccc(S(=O)(=O)N(C)C[C@H]2OCCCC[C@@H](C)Oc3ccc(N(C)C)cc3C(=O)N([C@@H](C)CO)C[C@H]2C)cc1	12
47	O=C(Nc1ccc(C(F)(F)F)cc1)N[C@@H]1CC[C@@H](CC(=O)N2CCCCC2)O[C@@H]1CO	-2.1
48	CC(C)NC(=O)N(C)C[C@@H]1Oc2cc(-c3ccccc3F)ccc2S(=O)(=O)N([C@H](C)CO)C[C@H]1C	-0.1
49	C[C@@H](NC(=O)C[C@H]1C=C[C@H](NC(=O)C2CCC2)[C@H](CO)O1)c1ccccc1	0.5
50	C[C@H](CO)N1C[C@H](C)[C@H](CN(C)Cc2ccccn2)Oc2cc(-c3ccc(C#N)cc3)ccc2S1(=O)=O	1.1
51	C[C@H](CO)N1C[C@H](C)[C@@H](CN(C)C(=O)NC2CCCCC2)OCc2cn(nn2)CCCC1=O	1.3&-2.2
52	COCCNC(=O)C[C@@H]1CC[C@@H](NC(=O)NC2CCCC2)[C@H](CO)O1	-0.5
53	O=C(/C=C/[C@H]1O[C@@H](n2cnc3c(NC(=O)c4ccccc4)ncnc32)[C@H](O)[C@@H]1O)NCCCc1ccccc1	-4.3
54	CCOC(=O)[C@]12CCC=C1N(CCC1=CCCCC1)C(=O)[C@H](CC(=O)NCc1ccc(C)o1)C2	-9.0
55	COc1ccc(C(C)(O)c2nc(-c3ccc(N(C)C)cc3)cs2)cc1 (stereo not given)	1.3
56	COc1ccc(S(=O)(=O)N(C)C[C@@H]2Oc3ccc(NC(=O)NC4CCCCC4)cc3CC(=O)N([C@@H](C)CO)C[C@H]2C)cc1	1.1
57	COc1ccccc1-c1cnc2c(c1)C(=O)N([C@@H](C)CO)C[C@H](C)[C@H](CN(C)C(=O)CC1CC1)O2	-6.9
58	C[C@@H]1CN([C@H](C)CO)C(=O)c2cc(NC(=O)NC3CCCCC3)ccc2O[C@@H](C)CCCCO[C@H]1CN(C)C(=O)c1ccccc1	2.6
59	CO[C@H]1CN(C)C(=O)c2cc(NC(=O)Nc3cc(F)ccc3F)ccc2OC[C@@H](C)N(C)C[C@@H]1C	1.7
60	C/C=C/c1ccc2c(c1)O[C@H](CN(C)C(=O)c1ccncc1)[C@H](C)CN([C@H](C)CO)S2(=O)=O	1.9

# 3 structures out of the list, arranged by SMILES length, smallest number first:
No.	Structure	MLL AF4-AF9 inh
59	CO[C@H]1CN(C)C(=O)c2cc(NC(=O)Nc3cc(F)ccc3F)ccc2OC[C@@H](C)N(C)C[C@@H]1C	1.7
57	COc1ccccc1-c1cnc2c(c1)C(=O)N([C@@H](C)CO)C[C@H](C)[C@H](CN(C)C(=O)CC1CC1)O2	-6.9
58	C[C@@H]1CN([C@H](C)CO)C(=O)c2cc(NC(=O)NC3CCCCC3)ccc2O[C@@H](C)CCCCO[C@H]1CN(C)C(=O)c1ccccc1	2.6

# The list continues:
No.	Structure	MLL AF4-AF9 inh
61	C[C@H]1CN([C@@H](C)CO)C(=O)c2cc(-c3ccccc3F)cnc2O[C@@H]1CN(C)Cc1ccccc1F	7.2
62	O=C(Nc1cccc(Cl)c1)N1C[C@H]2[C@@H](c3ccccc31)[C@H](CO)N2C(=O)c1cccnc1	0.4
63	CCCNC(=O)Nc1ccc2c(c1)C(=O)N(C)C[C@@H](OC)[C@@H](C)CN(Cc1cncnc1)[C@@H](C)CO2	-0.4
64	CO[C@@H]1CN(C)C(=O)c2ccc(NC(=O)Nc3ccc(F)cc3)cc2OC[C@@H](C)N(C(=O)c2ccc(F)cc2)C[C@H]1C	2.9
65	Cc1noc(C)c1NC(=O)N[C@H]1CC[C@H](CC(=O)N2CCN(C)CC2)O[C@H]1CO	-0.3
66	C[C@@H]1CN([C@@H](C)CO)C(=O)c2cc(NS(=O)(=O)c3ccc(Cl)cc3)ccc2O[C@@H]1CN(C)Cc1ccc(-c2ccccc2)cc1	0.4
67	C[C@@H]1CN([C@H](C)CO)C(=O)c2cccc(NC(=O)Nc3ccc(C(F)(F)F)cc3)c2O[C@H]1CN(C)C(=O)Nc1ccc(F)cc1	3.2
68	CC1(C(=O)NS(=O)(=O)c2cccs2)CCN1C(=O)c1ccccc1 (stereo not given)	0.7
69	C[C@@H]1CN([C@H](C)CO)S(=O)(=O)c2ccc(C#C[C@@H](C)O)cc2O[C@H]1CN(C)C(=O)C1CCCCC1	0.7
70	CCC(=O)Nc1ccc2c(c1)OC[C@@H](C)N(CC1CC1)C[C@H](C)[C@H](OC)CN(C)C2=O	-0.6
71	CCOC(=O)C1=CCN(S(=O)(=O)c2ccccc2Cl)C1c1cccc(F)c1 (stereo not given)	1.6
72	COc1cccc(C#Cc2cnc3c(c2)C(=O)N([C@@H](C)CO)C[C@@H](C)[C@@H](CN(C)C(C)=O)O3)c1	-2.0

# Values in list order from the list:
# Nos. 62–71 in MLL AF4-AF9 inh, in turn: 0.4, -0.4, 2.9, -0.3, 0.4, 3.2, 0.7, 0.7, -0.6, 1.6

# Continued.
No.	Structure	MLL AF4-AF9 inh
73	CC(C)NC(=O)NCC[C@@H]1CC[C@@H](NS(=O)(=O)c2ccc(-c3ccccc3)cc2)[C@@H](CO)O1	1.0
74	Cc1noc(C)c1NC(=O)N(C)C[C@H]1Oc2c(NC(=O)Nc3ccc(F)cc3)cccc2C(=O)N([C@H](C)CO)C[C@@H]1C	-0.9
75	COc1ccccc1-c1ccc([C@@H]2[C@@H](CO)N3CCCCN(C(=O)CN4CCOCC4)C[C@H]23)cc1	-2.9
76	O=C(C[C@H]1CC[C@H](NC(=O)c2ccncc2)[C@@H](CO)O1)NCC1CCCCC1	1.6
77	CC(C)NC(=O)Nc1ccc2c(c1)C(=O)N([C@H](C)CO)C[C@H](C)[C@H](CN(C)Cc1ccccc1)OCCCC[C@H](C)O2	-0.3
78	Cc1c(C(=O)NCc2ccc(C(C)C)cc2)sc(=O)n1Cc1ccc(S(=O)(=O)N(C)C)cc1	-4.5
79	CC(=O)N(C)C[C@H]1Oc2cc(-c3ccncc3)ccc2S(=O)(=O)N([C@@H](C)CO)C[C@@H]1C	1.4
80	CO[C@@H]1CC[C@@H]2CCN(C)C(=O)[C@@H](C)CN(C)C(=O)c3cc(C#N)ccc3OC[C@H]1O2	1.7
81	CO[C@@H]1CN(C)C(=O)c2ccc(NC(=O)c3ccccc3)cc2OC[C@@H](C)N(C)C[C@H]1C	-22
82	COc1ccc(NC(=O)N(C)C[C@@H]2Oc3c(NS(=O)(=O)c4ccc(Cl)cc4)cccc3C(=O)N([C@H](C)CO)C[C@H]2C)cc1	0.0
83	C[C@H]1CN([C@@H](C)CO)S(=O)(=O)c2ccc(-c3ccc(C(=O)N(C)C)cc3)cc2O[C@@H]1CN(C)C(=O)C1CCC1	-2.4
84	O=C(c1cnccn1)N1CC(=O)N2[C@H](C1)[C@@H](c1ccc(-c3cccc(F)c3)cc1)[C@@H]2CO	-0.9
85	O=S(=O)(c1ccccc1)N1[C@H](CO)[C@H]2c3ccccc3NC[C@H]21	0.0

# In the list so far, two have a cyano group:
No.	Structure	MLL AF4-AF9 inh
50	C[C@H](CO)N1C[C@H](C)[C@H](CN(C)Cc2ccccn2)Oc2cc(-c3ccc(C#N)cc3)ccc2S1(=O)=O	1.1
80	CO[C@@H]1CC[C@@H]2CCN(C)C(=O)[C@@H](C)CN(C)C(=O)c3cc(C#N)ccc3OC[C@H]1O2	1.7

# Assay outcomes: PubChem BioAssay, Broad Institute

# Some of the compounds tested (hit frequency here may not be typical).
